# From PubChem BioAssay
# Ecoli rRNA inh – selective bacterial rRNA inhibition in E. coli. E. coli WT GFP vs humanized-ribosome RFP mutants, fluorescence, 24 h; hits give low values; DMSO median 0, no signal -100. actives 1.6% (n = 350,000). GFP signal change (wild-type ribosome), % (concentration not given with the values). AID 720706;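 active = significant combined selectivity score with lowered wild-type GFP, culture density cut under 30%, mutant RFP and density less affected; inactive = any of these conditions unmet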; also: one replicate is shown; some compounds called inactive have numbers as strong as hits
# Vif A3G – inhibitors of Vif binding to APOBEC3G peptide, primary screen, biochemical, TR-FRET, GST-Vif 1-94, biotin-A3G peptide, dose response retest (AID 1117319); TR-FRET GST-Vif / biotin-A3G peptide binding; higher % means a stronger effect; test concentration not given here; strong numbers were not always called active; inhibition, %; hits with a dose series show IC50 in µM; actives 0.57% (n = 260,000);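 active = above the screen mean plus three standard deviations and confirmed in dose response; inconclusive = results disagree or hit not tested in dose response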;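 also: Vif residues 1-94 fused to GST binding biotinylated APOBEC3G peptide 110-148; 0% = full assay without inhibitor and 100% = GST in place of GST-Vif; retest series ran down from 100 µM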
# E coli growth – inhibitors of Escherichia coli growth; actives 0.21% (n = 330,000); OD600 absorbance (no concentration beside the values); AID 1053175; OD600, 23 h; hits give low values;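 active = OD600 absorbance below the run mean of sample wells minus 3.6 SD, in any replicate, cut at about 0.56 in these data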;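 also: stock transfer was 300 nL into about 60 µL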
# ALR H2O2 inh – human ALR oxidase inhibition via reduced H2O2; P55789; inhibition, % (no concentration beside the values); AID 485317; purified ALR, DTT oxidation, H2O2 HRP-luminol luminescence; actives 3.8% (n = 290,000);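 active = mean and each replicate at 75% or more; inconclusive = only one of the two met; inactive = neither met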;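 also: stock transfer was 7.5 nL into about 7.5 µL; 0% = neutral wells and 100% = wells with inactivated enzyme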
# Target sequence (P55789 whole entry, looked up): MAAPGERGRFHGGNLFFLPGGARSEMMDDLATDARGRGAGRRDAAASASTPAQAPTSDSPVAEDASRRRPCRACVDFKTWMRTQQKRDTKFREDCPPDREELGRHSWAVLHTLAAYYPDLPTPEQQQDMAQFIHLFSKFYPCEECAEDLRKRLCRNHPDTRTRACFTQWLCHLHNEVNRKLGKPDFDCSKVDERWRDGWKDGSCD
# FGF22 binding – shifts melting point of recombinant human FGF22. Q9HCT0. recombinant FGF22 thermal shift, SYPRO orange fluorescence; percent of sucrose octasulfate shift, DMSO zero. calls only at 9.99 µM. actives 1.5% (n = 340,000). AID 651658;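 active = melting point raised past a set limit in the mean and every replicate; inconclusive = no clear call; three in four hits are not shown here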
# Target sequence (Q9HCT0 whole entry, looked up): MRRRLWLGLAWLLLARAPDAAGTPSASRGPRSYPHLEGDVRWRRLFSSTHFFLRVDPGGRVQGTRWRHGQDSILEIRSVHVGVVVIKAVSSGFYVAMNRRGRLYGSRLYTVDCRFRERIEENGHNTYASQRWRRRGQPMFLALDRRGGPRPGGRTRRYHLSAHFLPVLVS
# MLL AF4-AF9 inh – MLL-AF4/AF9 protein interaction inhibition; P42568; AlphaScreen, biotin-AF4 peptide binding to FLAG-AF9; inhibition, % at 10 µM; actives 0.47% (n = 350,000); AID 651704;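 active = every replicate reaching a set inhibition limit, whatever the replicate mean, cut at about 25% in these data; inconclusive = mean inhibition reaches that limit but some replicates miss it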;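 also: 0% = plate neutral control median and 100% = total signal loss; the record names both 10 and 1 µM as test concentration; the first replicate is given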
# HNF4A DNA FP – change in binding of human HNF4 alpha to DNA. actives 0.3% (n = 360,000). AID 1224865. P41235. activity change, % at 10 µM. HNF4a-FITC DNA binding, fluorescence polarization, 1 h; in the data active = activity change above about 30%, passing the limit was not always enough;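 also: controls were the assay level and a saturating level of protein; the project sought stronger binding though the title names inhibitors; some compounds called inactive have numbers as strong as hits; positive values seem to mean higher polarization but the record does not say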
# Target sequence (P41235 whole entry, looked up): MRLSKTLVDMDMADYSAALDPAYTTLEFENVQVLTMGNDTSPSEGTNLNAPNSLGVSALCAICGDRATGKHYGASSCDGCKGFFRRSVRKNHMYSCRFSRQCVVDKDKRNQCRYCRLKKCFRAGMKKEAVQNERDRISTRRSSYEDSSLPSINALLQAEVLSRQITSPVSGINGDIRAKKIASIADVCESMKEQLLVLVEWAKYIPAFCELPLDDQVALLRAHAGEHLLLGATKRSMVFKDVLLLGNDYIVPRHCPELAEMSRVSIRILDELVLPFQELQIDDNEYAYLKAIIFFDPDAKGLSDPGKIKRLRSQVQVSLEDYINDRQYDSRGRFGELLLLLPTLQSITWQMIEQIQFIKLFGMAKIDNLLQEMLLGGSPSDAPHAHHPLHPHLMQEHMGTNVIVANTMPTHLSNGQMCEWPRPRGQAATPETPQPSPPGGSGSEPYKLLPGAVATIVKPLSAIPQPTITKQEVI
# Ecoli rRNA inh OD600 – recorded beside Ecoli rRNA inh, whose call it bears; OD600 change, %; measured here: OD600 growth;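 optical density of the mix in the first replicate; 0 = DMSO median and -100 = no signal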
# Ecoli rRNA inh RFP – further read-out of Ecoli rRNA inh, marked with its call; RFP signal change, %; measured here: RFP humanized mutant strains;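 first replicate; 0 = DMSO median and -100 = no signal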
# The depositor's hits bear a star; i = inactive; ? = inconclusive; . = not tested or not shown; & = joins results of further samples. The list is partial. The share of hits here may be higher or lower than overall.
Ecoli rRNA inh RFP	MLL AF4-AF9 inh	Vif A3G	Ecoli rRNA inh OD600	HNF4A DNA FP	E coli growth	FGF22 binding	Ecoli rRNA inh	ALR H2O2 inh	molecule
6.4	.	28.8%	7.7	-1.9	0.671	.	0.6	-26.1	CCOC(=O)N1CCN(Cc2cn[nH]c2-c2cccc3ccccc23)CC1
2.9	19.3	.	-5.5	.	.	i	-4.9	.	O=C(NCC[C@@H]1CC[C@@H](NS(=O)(=O)c2ccc(Cl)cc2)[C@H](CO)O1)Nc1ccc(F)cc1
4.4	7.8	.	7.9	5.2	0.722	i	4.0	-2.7	NC(=O)CC(NC(=O)c1ccccc1)c1ccc(NC2CCN(Cc3ccccc3)CC2)c([N+](=O)[O-])c1 (centres undefined)
0.1	-0.2	1.5%	4.9	-4.1	0.569	i	3.0	98.3*	Cc1ccc2nc(SCC(=O)Nc3ccc4c(c3)OCCO4)nc(=O)n2c1
-0.9	2.7	.	3.8	.	.	i	-2.8	.	C/C=C/c1ccc([C@H]2[C@@H](CNC(=O)c3ccncc3)N(C(=O)CC)[C@H]2CO)cc1
.	.	8.3%	.	-2.6	0.692	.	.	-27.5	CCOc1ccc2ccccc2c1CNCCN1CCOCC1
.	.	-7.2%	.	-1.4	0.756	.	.	14.6	O=C(Nc1ccccc1)C1C2CCC3C(CCC21)C3(Cl)Cl (centres undefined)
.	.	-2.8%&7.7%	.	2.7	0.641	.	.	-12.9	COc1ccc(CCNC(=O)C2CCN(S(=O)(=O)N3CCCCCC3)CC2)cc1OC
-2.2	5.2	.	10.9	-1.1	0.712	i	6.5	3.0	CCOc1ccc(CCNC(=O)CCc2nnc3ccc(N4CCOCC4)nn23)cc1OCC
2.2	-0.8	-1.7%	11.2	3.5	0.705	i	14.6	-1.5	O=C(Cn1cnc2ccccc2c1=O)NC1CCS(=O)(=O)C1 (centres undefined)
5.4	9.7	23.5%	10.4	0.7	.	i	3.8	3.4	Nc1nnnn1CC(=O)N/N=C/c1cc([N+](=O)[O-])ccc1O
.	.	8.5%	.	-2.2	0.703	.	.	-3.6	Cc1n[nH]c(=O)nc1NC(C)c1ccccc1 (centres undefined)

# A draw from above in order of heavy-atom count, lowest first:
Ecoli rRNA inh RFP	MLL AF4-AF9 inh	Vif A3G	Ecoli rRNA inh OD600	HNF4A DNA FP	E coli growth	FGF22 binding	Ecoli rRNA inh	ALR H2O2 inh	molecule
.	.	8.5%	.	-2.2	0.703	.	.	-3.6	Cc1n[nH]c(=O)nc1NC(C)c1ccccc1 (centres undefined)
.	.	-7.2%	.	-1.4	0.756	.	.	14.6	O=C(Nc1ccccc1)C1C2CCC3C(CCC21)C3(Cl)Cl (centres undefined)
5.4	9.7	23.5%	10.4	0.7	.	i	3.8	3.4	Nc1nnnn1CC(=O)N/N=C/c1cc([N+](=O)[O-])ccc1O
.	.	8.3%	.	-2.6	0.692	.	.	-27.5	CCOc1ccc2ccccc2c1CNCCN1CCOCC1
6.4	.	28.8%	7.7	-1.9	0.671	.	0.6	-26.1	CCOC(=O)N1CCN(Cc2cn[nH]c2-c2cccc3ccccc23)CC1
-0.9	2.7	.	3.8	.	.	i	-2.8	.	C/C=C/c1ccc([C@H]2[C@@H](CNC(=O)c3ccncc3)N(C(=O)CC)[C@H]2CO)cc1
.	.	-2.8%&7.7%	.	2.7	0.641	.	.	-12.9	COc1ccc(CCNC(=O)C2CCN(S(=O)(=O)N3CCCCCC3)CC2)cc1OC
2.9	19.3	.	-5.5	.	.	i	-4.9	.	O=C(NCC[C@@H]1CC[C@@H](NS(=O)(=O)c2ccc(Cl)cc2)[C@H](CO)O1)Nc1ccc(F)cc1
-2.2	5.2	.	10.9	-1.1	0.712	i	6.5	3.0	CCOc1ccc(CCNC(=O)CCc2nnc3ccc(N4CCOCC4)nn23)cc1OCC
4.4	7.8	.	7.9	5.2	0.722	i	4.0	-2.7	NC(=O)CC(NC(=O)c1ccccc1)c1ccc(NC2CCN(Cc3ccccc3)CC2)c([N+](=O)[O-])c1 (centres undefined)

# (continued)
Ecoli rRNA inh RFP	MLL AF4-AF9 inh	Vif A3G	Ecoli rRNA inh OD600	HNF4A DNA FP	E coli growth	FGF22 binding	Ecoli rRNA inh	ALR H2O2 inh	molecule
-10.0	6.0	.	-63.4	0.4	0.75	i	-43.0	98.1*	CCOC(=O)N1CCN(C(=O)c2ccc3c(c2)N(Cc2ccccc2)CCS3)CC1
-2.0	-12.9	.	-6.1	.	.	i	2.2	.	Cc1cc(C(=O)Nc2cccc3c2O[C@@H](CN(C)S(=O)(=O)c2cccs2)[C@H](C)CN([C@H](C)CO)C3=O)n(C)n1
-0.2	1.6	.	-13.0	.	.	i	-3.1	.	COCC#Cc1ccc2c(c1)O[C@H](CN(C)S(=O)(=O)c1cccc(F)c1)[C@H](C)CN([C@@H](C)CO)S2(=O)=O
-0.7	-1.2	0.2%	12.9	2.1	0.662	i	6.5	-7.6	CSCC(O)Cn1ncc2ccccc2c1=O (centres undefined)
.	.	?	.	3.1	0.614	.	.	35.7	O=C(OCC(=O)N1CCc2ccccc21)C1=COCCO1
-0.7	2.1	-4.6%	-7.0	4.9	0.634	i	-5.1	-25.4	COc1ccc(OCCCC(=O)NCCc2nc3ccccc3[nH]2)cc1
.	.	13.2%	.	13.1	.	.	.	?	CCN(CC)c1ccc(/C=N/Nc2ccccc2)c(O)c1
2.7	-1.3	.	11.9	1.4	0.667	i	19.8	-0.6	CCC1C(=O)NCCN1C(=O)c1ccc(OC)c(OC2CCN(C(C)=O)CC2)c1 (centres undefined)
0.1	3.7	.	6.5	.	.	i	4.2	.	C[C@@H]1CN([C@H](C)CO)C(=O)c2cccc(NC(=O)c3nc4ccccc4s3)c2O[C@@H]1CN(C)C(=O)Nc1ccccc1
0.3	-0.1	-5.6%	-14.3	1.4	0.702	i	-20.1	-17.6	CCOc1ccc(NC(=S)NCCCc2ccccc2)cc1
.	.	-1.8%	.	-3.4	0.654	.	.	0.5	CS(=O)(=O)Nc1ccccc1C(=O)Nc1ccc2c(c1)OCCO2
4.3	-3.4	.	-0.5	-4.9	0.698	i	4.6	-0.6	Cc1cc(-c2ccc(C)c(S(=O)(=O)N3CCN(c4ccc(F)cc4)CC3)c2)on1
19.1	1.8	.	19.6	-3.1	0.696	i	6.4	79.7*	CCOC(=O)c1ccc(NC(=S)Nc2ccc3[nH]c(=O)[nH]c3c2)cc1
.	.	12.1%	.	-6.7	0.692	.	.	-3.0	CN1C(=O)N(C)C2(c3ccccc3)N(C)C(=O)NC12c1ccccc1 (centres undefined)
0.9	-0.5	.	-5.4	.	.	i	0.3	.	C[C@@H]1CCCCO[C@@H](CN(C)C(=O)CCC(F)(F)F)[C@H](C)CN([C@@H](C)CO)C(=O)c2cc(NC(=O)C3CCCCC3)ccc2O1
-3.8	.	-2.1%&-0.6%	-26.4	-0.6	0.698	.	-13.1	-27.0	C=CCn1c(SCC(=O)NCc2ccc3c(c2)OCO3)nnc1C1COc2ccccc2O1 (centres undefined)
2.3	-3.1	.	3.3	.	.	i	1.6	.	C[C@H]1CN([C@@H](C)CO)C(=O)c2cccc(N(C)C)c2O[C@H]1CN(C)S(C)(=O)=O
.	.	5.6%	.	-1.4	0.687	.	.	-4.2	COc1cccc(OC)c1C(=O)NC(=S)N1CCN(c2ccc(C(F)(F)F)cc2[N+](=O)[O-])CC1
0.2	2.1	.	10.6	3.0	0.686	i	4.8	2.4	CCc1cc2c(=O)n(Cc3ccco3)c(SCC(=O)NCC3CCCO3)nc2s1 (centres undefined)
-10.4	.	-4.0%	14.5	1.8	.	i	6.4	-7.5	NC(=O)[C@H]1CC2(CC(c3cccc(NC(=O)COc4ccc(Cl)cc4)c3)=NO2)CN1C(=O)[C@H]1CCC(=O)N1 (some centres undefined)
4.0	-2.8	0.3%	-6.5	-2.3	0.675	i	0.0	-11.2	NC(=O)c1cc(S(=O)(=O)Nc2cccc(Cl)c2)cs1
-17.6	-1.0	.	-72.0	3.8	.	i	-55.5	.	O=C(NC(c1ccc(Cl)cc1)c1cccnc1)C1CCN(CCOc2ccc(Cl)cc2Cl)CC1 (centres undefined)
.	.	-2.9%	.	1.8	0.718	.	.	1.9	COC(=O)[C@@H](NC(=O)NCc1cccs1)C(C)C
-0.9	0.9	.	4.1	4.3	0.678	i	5.8	.	Cc1nc(C)c(C(=O)OCC(=O)Nc2ccccc2)s1
0.7	-0.3	0.2%	5.2	-0.1	0.72	i	5.4	.	Nc1nnc(SCC(=O)NNC(=O)c2ccccc2)s1
-4.8	-2.0	.	3.1	.	.	i	-3.8	.	C#CCN1CC(COCCCC)Oc2cccc(Oc3ccc(C(C)(C)C)c(C)c3)c2S1(=O)=O (centres undefined)
0.6	-0.8	9.8%	14.2	-1.8	0.679	i	22.3	-14.9	Cc1c(Br)c([N+](=O)[O-])nn1CC(=O)NCC1CCCO1 (centres undefined)
.	.	-8.0%	.	0.8	0.696	.	.	-3.3	CC(C)c1nnc(SCC(=O)N2CCOCC2)n1C
.	.	-1.5%	.	6.9	0.673	.	.	4.3	NC(=O)CC[C@H](NC(=O)OCc1ccccc1)C(=O)OCc1ccc(Cl)cc1
-1.8	8.9	.	-20.5	-0.1	0.707	i	-12.1	87.8*	CCOc1ccccc1NC(C)C(=O)NC(=O)NC1CCCCC1 (centres undefined)
2.5	0.1	-0.7%	0.9	-2.7	0.699	i	6.2	-4.4	O=C(CSc1ccc(-c2ccc(Br)cc2)nn1)N1CCOCC1
-3.9	-11.5	28.6%	0.1	-3.0	0.664	i	4.6	-2.0	O=C1NCCCc2nonc21
-1.1	-4.6	-13.2%	20.9	-1.4	0.64	i	4.7	-2.4	O=C(Nc1cc(Cl)ccc1-n1cncn1)c1cccs1
6.4*	-4.5	?	-2.9*	52.2	0.676	i	-15.2*	.	N=C1/C(=C\c2coc3ccccc3c2=O)C(=O)N=C2SC(c3ccncc3)=NN12
0.5	-11.5	-2.9%	8.5	2.4	0.686	i	9.8	-11.5	CCOc1ccc(Nc2nc3cc(S(=O)(=O)CC)ccc3o2)cc1
0.0	-1.2	2.0%	6.7	1.6	0.715	i	3.4	-6.5	COc1ccc(NC(=O)C2CCN(S(=O)(=O)c3c(C)noc3C)CC2)cc1Cl
-3.1	-0.8&-4.3	.	16.7	.	.	i	3.1	.	C[C@@H]1CN([C@@H](C)CO)C(=O)c2cc(Br)cnc2O[C@H]1CN(C)Cc1cccc(F)c1
-2.8	-14.5	.	5.8	-1.0	0.706	i	2.8	-10.4	O=C(CSc1nnc(-c2cccc(Br)c2)o1)N1CCNC1=O
5.2	7.0	4.8%	-1.3	3.6	0.598	i	-5.8	58.2	CCOc1cc(/C=C2/C(=O)ON=C2C)ccc1OCc1ccccc1F
3.2	-0.9	-4.1%	12.3	0.3	0.711	i	4.5	-14.1	Cn1cccc1C(=O)OCC(=O)Nc1ccc2c(c1)OCCO2
-1.8	1.2	.	7.7	.	.	i	3.5	.	C[C@H](CO)N1C[C@H](C)[C@@H](CN(C)C(=O)Nc2cccc3ccccc23)Oc2ccc(N(C)C)cc2C1=O
